Compound activity: PubChem BioAssay, The Scripps Research Institute Molecular Screening Center
OX1R antag-1: human HCRTR1 antagonism; O43613; CHO/OX1R cells, Fluo-8 calcium fluorescence, orexin A; inhibition, % at 5 µM; actives 0.43% (n = 330,000); AID 434989;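 active = inhibition above its plate's threshold, mean inhibition of all tested compounds on the plate plus 3 SD, cut at about 37% in these data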;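 note: 0% = orexin A challenge wells and 100% = SB-334867-A antagonist wells; not every result past the cut was called active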
Target sequence (O43613 whole entry, looked up): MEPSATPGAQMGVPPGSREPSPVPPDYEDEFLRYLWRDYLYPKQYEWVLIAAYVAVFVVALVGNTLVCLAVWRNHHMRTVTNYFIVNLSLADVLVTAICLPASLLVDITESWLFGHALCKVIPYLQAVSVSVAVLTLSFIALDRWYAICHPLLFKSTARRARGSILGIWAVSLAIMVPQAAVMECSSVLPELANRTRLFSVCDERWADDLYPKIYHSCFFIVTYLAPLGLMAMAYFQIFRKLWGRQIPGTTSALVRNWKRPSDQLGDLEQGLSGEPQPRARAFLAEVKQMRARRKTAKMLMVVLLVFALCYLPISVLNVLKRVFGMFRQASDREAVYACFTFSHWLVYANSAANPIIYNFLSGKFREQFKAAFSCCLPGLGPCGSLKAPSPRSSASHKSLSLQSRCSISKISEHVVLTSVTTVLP
OX1R antag-2: blocks the human orexin 1 receptor; actives 1.8% (n = 330,000); AID 485270; OX1R-expressing cells, FRET antagonist read-out; inhibition, % at 6.6 µM; O43613; in the data active = inhibition mostly above about 38%, no sharp cut-off; inactive = mostly below about 40%;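 note: 0% = agonist challenge alone and 100% = reference antagonist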
Starred values were filed as active, the others as inactive.

canonical_smiles,OX1R antag-1,OX1R antag-2
Clc1ccccc1Cn1nnc(-c2cccs2)n1,-8,23
CSC1=NCCN1C(=O)c1ccc(S(=O)(=O)N2CCOCC2)cc1,-9,2
COC(=O)CC1SC(=O)NC1=O (stereo not given),-11,10
COc1cc(C(=O)O)cc(NC(=O)c2cccs2)c1OC,-6,15
O=C(c1ccc(Cl)c([N+](=O)[O-])c1)N1CCN(C(=O)c2ccco2)CC1,-4,26
O=C(O)COc1ccc(Br)cc1/C=N/O,-11,2
O=C(Cc1cccs1)Nc1ccc(C(=O)O)cc1,2,15
CCC1CCCCN1CCCNC(=O)c1cn(CC)c2ccc(S(=O)(=O)N3CCc4ccccc4C3)cc2c1=O (stereo not given),-40,6
CCOc1ccc(C(=O)CCC(=O)NC(CC(C)C)C(=O)OC)cc1 (stereo not given),-21,5
Cc1ccc(OCc2n[nH]c(=S)n2C2CCCCC2)cc1,-27,-3
c1ccc(-c2noc(CN3CCOCC3)n2)cc1,0,31
CCOC(=O)C1CCCN(C(=O)CN2C(=O)/C(=C/c3ccc(OC)cc3)Oc3ccccc32)C1 (stereo not given),-37,70

4 compounds out of the list above, ordered by the number in OX1R antag-2, descending:
canonical_smiles,OX1R antag-1,OX1R antag-2
c1ccc(-c2noc(CN3CCOCC3)n2)cc1,0,31
Clc1ccccc1Cn1nnc(-c2cccs2)n1,-8,23
COc1cc(C(=O)O)cc(NC(=O)c2cccs2)c1OC,-6,15
CSC1=NCCN1C(=O)c1ccc(S(=O)(=O)N2CCOCC2)cc1,-9,2

The listing continues.
canonical_smiles,OX1R antag-1,OX1R antag-2
CCC(CC)c1nnc(NC(=O)Cc2cccs2)s1,-26,7
CNC1(c2nnnn2-c2ccccc2C)CCOC(C)(C)C1 (stereo not given),-11,8
COc1ccccc1CNC(=O)c1cc(-c2ccccc2)nn1CC1CC(c2cccc([N+](=O)[O-])c2)=NO1 (stereo not given),-16,39
Cc1ccc(S(=O)(=O)N(C)C)cc1NC(=O)COC(=O)Cc1ccccc1F,-24,18
O=C(OCC(=O)N1CCCC1=O)c1cc(S(=O)(=O)N2CCOCC2)ccc1Cl,-11,6
O=C(Cn1c(-c2cncs2)nc2ccccc21)NCCc1ccccc1,-12,27
Cc1cccc(NC(=O)C2CCCN(S(=O)(=O)c3ccc4[nH]c(=O)ccc4c3)C2)n1 (stereo not given),-17,19
O=C(N/N=C/C=C/c1ccco1)c1ccccc1Cl,-6,17
CC(C)CC1Nc2ncnc(N3CCCCC3)c2N(Cc2ccccc2)C1=O (stereo not given),-25,32
COc1cc(NC(=O)CSc2nnc(C)s2)cc(OC)c1,-22,6
O=[N+]([O-])c1ccc2c(c1)CNc1ccccc1O2,-23,34
Nc1[nH]nc2nc(NCc3ccccc3)c3c(c12)CCN(Cc1ccccc1)C3,-14,2

(more compounds)
canonical_smiles,OX1R antag-1,OX1R antag-2
CN1CCN(C(=O)c2cc(Cl)cc(Cl)c2NC(=O)c2ccco2)CC1,3,-3
CC1CC(C)CN(C(=O)C(NS(=O)(=O)c2ccc3c(c2)oc(=O)n3C)C(C)C)C1 (stereo not given),-26,11
CCOc1nc(OCC)nc(N2CCC(C)CC2)n1,-9,3
Cc1cccc(CCNS(=O)(=O)c2ccc(S(=O)(=O)NC3CCCC3)cc2)c1,-9,21
COc1cc2[nH]c3c(OC)ncnc3c2cc1OC,-5,1
Cc1ccc(-c2cccc(NC(=O)C3C4C=CC(C4)C3C(=O)O)c2)o1 (stereo not given),-6,10
CC(C)CC(=O)Nc1cccc(-c2nc3ccccc3[nH]2)c1,-4,30
Cc1cc(CNCc2cn(C)nc2-c2ccc(Oc3ccccc3)cc2)on1,-24,15
Cc1cc(C)n(C(C)CC(=O)Nc2ccc(-c3ccno3)cc2)n1 (stereo not given),-12,10
COC(=O)c1cc(OC)cc(O)c1C(=O)c1c(O)cc(C)cc1O,3,12
CSc1ccc(CNc2cccc3ccccc23)cc1,-22,7
Cc1cccc(N2CCN(S(=O)(=O)c3c(C)[nH]c(C)c3C(=O)N3CCCC3)CC2)c1C,-8,6

Other compounds:
canonical_smiles,OX1R antag-1,OX1R antag-2
CC(=O)Nc1cc2c(cc1[N+](=O)[O-])OCCO2,4,36
COc1ccc(C(=O)Nn2cnnc2)cc1OC,17,9
CC(c1ccco1)N(C(=O)COc1ccc(Cl)cc1)c1ccccn1 (stereo not given),-23,29
Cc1ccccc1N(CC(=O)NCc1ccco1)C(=O)CNS(=O)(=O)c1ccc(F)cc1,-19,9
COc1ccccc1C(CNC(=O)c1cccc(NS(=O)(=O)c2ccc(C)c(F)c2)c1)N(C)C (stereo not given),-29,5
O=C(Cn1cnc2c(cnn2-c2ccccc2)c1=O)NCc1ccccc1,-5,6
CCOC(=O)c1[nH]c2cc3c(cc2c1NC(=O)CN1CCCC1)OCO3,-14,6
CC1CCN(S(=O)(=O)c2ccc(NC(=O)c3ccccc3F)cc2)CC1,-8,21
COc1ccc(Cn2nnnc2C(c2ccc(F)cc2)N2CCN(C3CCCC3)CC2)cc1 (stereo not given),-16,9
Cc1ccccc1NC(=S)NN1CCN(C)CC1,-1,33
COc1ccc(S(=O)(=O)NC(CC(=O)NCc2ccco2)c2ccco2)cc1 (stereo not given),-7,0
CCOC(=O)c1ccc(NC(=O)c2nc[nH]c2C(=O)NCC(=O)OC(C)(C)C)cc1,-32,5

Next compounds
canonical_smiles,OX1R antag-1,OX1R antag-2
COC(=O)CCC(=O)OC1(C)C(=O)C2=CN(CCc3c[nH]c4ccccc34)C(c3ccc(OC)cc3)=CC2=C(Br)C1=O (stereo not given),-15,36
COc1cccc(-n2cc3c(=O)n(C)c(=O)n(C)c3c2)c1,-11,35
COc1ccc(CNc2ccc(C)c(C)c2)c(OC)c1OC,-19,18
Cc1ccc(NC(=O)CN(C)C(=O)CCCN2C(=O)c3ccccc3C2=O)cc1,-42,11
CCOC(=O)c1cc(-c2nnc(-c3ccc(Oc4ccccc4)cc3)o2)c(C)nc1C,-9,13
N#Cc1ccc(C(=O)Nc2ccc3ccccc3c2)cc1,-9,7
Cc1cc(NCc2ccccn2)n2nc(C)c(-c3ccccc3)c2n1,-25,4
COC(=O)CN(c1nc(C)c(Cl)c(OC)n1)S(=O)(=O)c1ccc(C)cc1,-55,12
CCOc1ccc(C(=O)NCC(=O)N2CCN(C/C=C/c3ccccc3)CC2)cc1OCC,-20,9
Cc1cccc(C)c1NC(=O)CNC(=O)c1cncc(Br)c1,-4,14
O=C(O)[C@H](O)[C@@H](O)C(=O)O,-12,1
COc1ccccc1C(=O)COC(=O)c1cnc(C)cn1,-13,13

Exported field by field: part of the list above
N#Cc1ccc(C(=O)Nc2ccc3ccccc3c2)cc1
  OX1R antag-1 = -9; OX1R antag-2 = 7

Cc1cc(NCc2ccccn2)n2nc(C)c(-c3ccccc3)c2n1
  OX1R antag-1 = -25; OX1R antag-2 = 4

COC(=O)CN(c1nc(C)c(Cl)c(OC)n1)S(=O)(=O)c1ccc(C)cc1
  OX1R antag-1 = -55; OX1R antag-2 = 12

New compounds follow.
canonical_smiles,OX1R antag-1,OX1R antag-2
CCOC(=O)c1cnc(SCC(=O)N2CCC(C(N)=O)CC2)nc1N,0,18
COc1ccc(NC(=O)C2C3CCC4C(CCC32)C4(Cl)Cl)cc1 (stereo not given),-17,38
O=C(Nc1ccc([N+](=O)[O-])cc1)C1CC12CCC2 (stereo not given),-17,34
Cc1cc(NCCO)c2ccccc2n1,-5,7
CCOc1ccccc1C(=O)OCC(=O)Nc1ccc(OC(F)F)cc1,10,37
COc1cccc(C(=O)COc2ccc(NC(=O)c3cccs3)cc2)c1,1,19
CC(=O)Nc1ccc(S(=O)(=O)Nc2ccc3c(c2)n(C)c(=O)n3C)c(C)c1,-7,7
Cc1cc(C(=O)OCc2nnc(-c3ccccc3)o2)c(C)n1-c1ccccc1,15,66
CC1CCC2(CC1)N=C(N)Nc1nc3ccccc3n12 (stereo not given),-3,11
Cc1cc(NS(=O)(=O)c2ccc(NC(=O)CCCOc3ccccc3C)cc2)no1,-19,17
N#Cc1cn(Cc2ccncc2)c(=O)[nH]c1=O,6,21
Cc1cc(Cl)ccc1N1C(=O)CC(SCCC(=O)O)C1=O (stereo not given),-5,21

(list continues)
canonical_smiles,OX1R antag-1,OX1R antag-2
O=c1nc(N2CCOCC2)ccn1-c1nc(-c2ccccc2)oc1-c1ccccc1,-15,6
COc1cccc(NC(=O)C2C3C=CC4(O3)C2C(=O)N(CCN2CCCCC2)C4C(=O)NC2CCCCC2C)c1 (stereo not given),-17,28
COC(=O)CCC(=O)OC1(C)C(=O)C=C2C=C(C3CC3)N(Cc3ccc4c(c3)OCO4)C=C2C1=O (stereo not given),-1,27
Cc1nc2c(F)c(F)c(C(F)(F)F)c(F)c2[nH]1,-1,12
N#Cc1c(N)nc2c(c1N)CC(=O)N2c1ccc(Cl)cc1,-2,15
O=C(CSc1nc2ncccc2[nH]1)c1ccc(F)cc1,-22,17
Cc1cccc(OC(=O)c2cncc(Br)c2)c1,-6,7
CN(C(=O)CSc1nncc2ccccc12)C1CCCCC1,-35,13
COc1ccc(-c2cc(=O)oc3cc(OCc4nn[nH]n4)ccc23)cc1,-10,9
CCOCCOC(=O)COc1ccc2c(-c3ccccc3)cc(=O)oc2c1,-16,25
CN1C(C(=O)NCc2ccccc2)CC2Cn3c(nc4ccccc43)C21 (stereo not given),-12,29
O=C(CCNS(=O)(=O)c1ccc2[nH]c(=O)oc2c1)NCc1ccc(F)cc1,-1,20

Going on with the list:
mol	OX1R antag-1	OX1R antag-2
COc1ccc(CN2CCN(c3cc(C)nc4c5c(C)cc(C)nc5nn34)CC2)cc1F	-30	14
Cc1cc(=O)oc2c1c(C)nn2-c1ccc(Br)cc1	-10	13
CC1CN/C(=C\C(=O)c2ccc(Br)cc2)C(=O)N1 (stereo not given)	-14	14
C=CCN(CC=C)CCOc1cc(C)ccc1[N+](=O)[O-]	-30	11
CCC(=O)c1ccc(O)cc1	-1	13
CC1(C)SCC2C(=O)N3C(CSC3(C)C)C(=O)N21 (stereo not given)	-7	4
CCOc1ccccc1NC(=O)CN1C(=O)COc2ccccc21	-6	11
COc1cccc(-c2ccc(=O)n(CC(=O)Nc3ccc(C(=O)N4CCCC4)cc3)n2)c1	26	54
CCn1c(CC(=O)Nc2ccccc2)nnc1SCC(=O)N1CCOCC1	-10	14
O=C(CSc1ccccc1C(=O)O)NCc1ccccc1	1	9
Cc1ccc(-c2c(C(=O)Nc3ccccc3C)c(C)[nH]c(=S)c2C#N)o1	-14	11
O=[N+]([O-])c1cccc(S(=O)(=O)N2CCN(S(=O)(=O)N3CCOCC3)CC2)c1	-14	5
CCOC(=O)CCC(=O)Nc1ccc(S(=O)(=O)N2CCC(C)CC2)cc1	-2	3
C=CCOc1c2ccc(C(=O)N(CC)c3ccc(OC)cc3)cc2nn1C	-14	22
CCOC(=O)c1ccc(NC(=S)NCC(O)c2ccccc2)cc1 (stereo not given)	7	27
Cn1nc(C(C)(C)C)cc1C(=O)NNC(=O)c1ccccc1Cl	-4	6
O=C1NCCN1Cc1ccccc1	-5	5
CN(C)S(=O)(=O)c1cccc(NC(=O)CCCSc2ccccc2)c1	-9	23
CC(C)Cc1ccc(C(C)C(=O)Nc2ncccn2)cc1 (stereo not given)	9	2
COc1cccc(N(CC(=O)NC2CCCCCC2)S(=O)(=O)c2ccccc2)c1	-29	61

(continued)
mol	OX1R antag-1	OX1R antag-2
O=C1NC(c2ccccc2)=C(c2ccc3ccccc3n2)C(c2ccccc2)N1 (stereo not given)	-35	3
Cc1cc(C)n(C(=O)CSc2ccc(Cl)cc2)n1	-9	14
Cc1ccc(-c2cnc(NC(=O)CCC(=O)N3CCCCC3)n2C)cc1	-13	1
CC(NC(=O)c1cc(F)c(F)cc1Cl)C1CC2CCC1C2 (stereo not given)	-34	31
O=C(CO)N/N=C/c1ccccc1F	20	6
CC(=O)c1c(N2CCC(C(N)=O)CC2)nc(=S)n(-c2ccccc2)c1C	-11	1
CCS(=O)(=O)NCc1csc(-c2ccccc2)n1	-23	14
CC(C)(C)Nc1nc2ccc([N+](=O)[O-])cc2o1	-18	9
CC(=O)N1CSCC1C(=O)O (stereo not given)	1	19
O=c1cc(CSc2nc(NCc3ccccc3)c3ccccc3n2)nc2ccc(Cl)cn12	-15	18
COc1ccc(N2C(=O)c3ccc(C(=O)Nc4ccc(NC(C)=O)cc4)cc3C2=O)cc1	-5	-9
O=C(O)CCS(=O)(=O)c1ccc(-c2ccccc2)cc1	-10	9
COc1ccc(Cl)cc1Nc1nc(-c2sc(NC(=O)CC(C)C)nc2C)cs1	-29	34
CC(=O)c1cccc(S(=O)(=O)NCC(C)(C)N2CCOCC2)c1	-9	4
O=[N+]([O-])c1ccccc1S(=O)(=O)Nc1ccc(-c2ccc(N3CCCC3)nn2)cc1	-16	40
CCC1CCc2c(c3ccccc3[nH]c2=O)O1 (stereo not given)	-39	28
C=CCn1c(=NC(=O)CN2C(=O)CCC2=O)sc2cccc(OC)c21	4	4
O=C(O)c1cccc(NC(=O)c2ccc(S(=O)(=O)c3ccccc3)cc2)c1	-12	15
O=C(c1ccc2c(c1)N(Cc1ccccc1F)C(=O)c1ccccc1S2)N1CCOCC1	-17	9
O=C(Nc1ccon1)c1cccc(S(=O)(=O)N2CCCCC2)c1	-14	13

Not all compounds are listed; most or all hits stand in other tables.
